# T cruzi repl: inhibitors of intracellular T. cruzi growth, primary screen, luminescence, NIH3T3 host cells; 1.4% of 300,000 active; T. cruzi beta-gal in NIH3T3, 90 h; inhibition, % (test concentration not listed);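 active = mean inhibition across valid replicates above about 55%, limit read from the data; inconclusive = mean below that limit but half or more replicates reach it; inactive = mean below it, under half of replicates reach it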;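 also: signal also drops with host cell toxicity which is not excluded here; 0% = plate median of DMSO wells and 100% = zero luminescence signal; higher percent means less beta-gal luminescence so fewer parasites; stock transfer was 50 nL into about 50 µL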
# Calb FLC: C. albicans growth inhibition with fluconazole, primary screen, CaCi-2 strain, Alamar Blue fluorescence. growth inhibition, % (no concentration beside the values). C. albicans CaCi-2 (fluconazole-resistant clinical isolate) + fluconazole, 48 h. 0.57% of 300,000 active;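 active = most replicates above 75%; inconclusive = exactly half above 75%; inactive = most below 75%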;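 also: all wells also contain fluconazole at 8 µg/ml as a sub-toxic cotreatment; 0% = median of DMSO wells and 100% = median of geldanamycin control wells; wells of about 8 µL received 7.5 nL stock; the first replicate is given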
# LANA-H2A inh: blockers of LANA interaction with H2A/H2B – biochemical, FP readout, HTS, primary screen. cell-free LANA-H2A/H2B peptide, fluorescence polarization. Protein LANA1 (Human herpesvirus 8 type P (isolate GK18)), Q9QR71. inhibition, % (no concentration beside the values). 0.6% of 320,000 active. AID 2629, 2010; in the data active = inhibition mostly above about 10%, no sharp cut-off; inactive = mostly below about 6.7%;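 also: stock transfer was 7.5 nL into about 10 µL; 0% = median of vehicle wells and 100% = median of positive control wells; one replicate is shown; the record names a cut of 25% in any replicate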
# Beta2AR agonist: beta2AR agonists driving receptor internalization, primary screen, cell-based, FAP fluorogen, flow cytometry | 0.43% of 340,000 active | Beta-2 adrenergic receptor (Homo sapiens), P07550 | AID 504454, 2011 | Am2.2-beta2AR cells; reference of the scale not given here | response, % (concentration not given with the values);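 active = response above a set limit, near 3 SD of response in nonfluorescent compounds, cut at about 42% in these data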;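 also: stock transfer was 100 nL into about 11 µL; a reference agonist was the positive control; negative values mostly stem from fluorescent compounds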
# Target sequence (P07550 whole entry, looked up): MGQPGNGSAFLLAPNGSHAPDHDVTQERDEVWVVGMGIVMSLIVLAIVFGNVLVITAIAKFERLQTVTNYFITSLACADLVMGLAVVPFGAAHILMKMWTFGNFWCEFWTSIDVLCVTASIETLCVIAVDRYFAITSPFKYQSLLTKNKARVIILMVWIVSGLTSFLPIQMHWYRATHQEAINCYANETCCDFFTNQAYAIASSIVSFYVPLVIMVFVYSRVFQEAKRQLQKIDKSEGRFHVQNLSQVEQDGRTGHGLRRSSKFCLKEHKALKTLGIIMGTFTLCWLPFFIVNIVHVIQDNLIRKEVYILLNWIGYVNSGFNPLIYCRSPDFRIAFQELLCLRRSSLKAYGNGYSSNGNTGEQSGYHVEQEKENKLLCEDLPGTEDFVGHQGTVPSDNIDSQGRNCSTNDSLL
# rRNA inh HTS: reduced GFP signal of wild-type E. coli, primary screen, bacterial rRNA inhibitor project, GFP/RFP fluorescence, OD600, single point; E. coli WT GFP vs humanized-ribosome RFP mutants, 24 h; hits give low values; DMSO median 0, no signal -100; GFP signal change (wild-type ribosome), % (test concentration not listed); 1.6% of 350,000 active; AID 720706, 2013;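 active = significant combined selectivity score with lowered wild-type GFP, culture density cut under 30%, mutant RFP and density less affected; inactive = any of these conditions unmet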; also: one replicate is shown; some compounds called inactive have numbers as strong as hits
# ALR H2O2 inh: inhibitors of human ALR sulfhydryl oxidase, primary screen, biochemical, H2O2 detection, HRP-luminol luminescence, single point | 3.8% of 290,000 active | inhibition, % (concentration not given with the values) | purified ALR, DTT oxidation | FAD-linked sulfhydryl oxidase ALR (Homo sapiens), P55789;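 active = mean and each replicate at 75% or more; inconclusive = only one of the two met; inactive = neither met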;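 also: stock transfer was 7.5 nL into about 7.5 µL; 0% = neutral wells and 100% = wells with inactivated enzyme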
# Target sequence (P55789 whole entry, looked up): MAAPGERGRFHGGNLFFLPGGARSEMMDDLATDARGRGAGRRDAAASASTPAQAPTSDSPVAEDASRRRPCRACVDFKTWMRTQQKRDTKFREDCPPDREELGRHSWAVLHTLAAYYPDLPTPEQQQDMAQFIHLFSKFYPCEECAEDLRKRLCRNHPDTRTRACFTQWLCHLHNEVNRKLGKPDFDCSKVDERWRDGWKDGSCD
# Beta apoptosis: inhibitors of cytokine-induced beta cell apoptosis, primary screen, luminescence; INS-1E cytokine-induced death, ATP luminescence, 48 h; percent of positive-control rescue, neutral wells zero; protection from apoptosis, % (no concentration beside the values); 0.8% of 300,000 active; AID 435005, 2010;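 active = all replicates at 75% or more, or half of them and the mean; inconclusive = half reach 75% but not the mean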;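 also: 0% = cytokine-treated negative control wells and 100% = positive control rescue; higher means more ATP so stronger rescue from cytokine killing; wells of about 40 µL received 100 nL stock; the first replicate is given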
# Bfl-1 A1 inh: caspase 3/7 activation in MEF A1-2A-BIM cells, primary screen, A1 inhibitor project, cell-based, luminescence, HTS. Caspase-Glo 3/7 luminescence, 3 h; percent of clofoctol response, vehicle zero. caspase activation, % (test concentration not listed). 0.066% of 330,000 active;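 active = over half of replicate activation scores above 10%, or exactly half above 10 with the replicate mean above 10; inconclusive = replicate mean below 10 yet half the replicates above 10; inactive = over half of replicates below 10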;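 also: wells of about 30 µL received 50 nL stock; many hits fall short of the cut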
# rRNA inh HTS OD600: further read-out of rRNA inh HTS, marked with its call; OD600 change, %; measured here: OD600 growth;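 optical density of the mix in the first replicate; 0 = DMSO median and -100 = no signal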
# rRNA inh HTS RFP: second read-out of rRNA inh HTS, no call of its own (marks repeat the call); RFP signal change, %; measured here: RFP humanized mutant strains;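 first replicate; 0 = DMSO median and -100 = no signal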
# The depositor's hits bear a star; u = inconclusive; x = no result given; & = joins results of further samples.
Structure,LANA-H2A inh,rRNA inh HTS,ALR H2O2 inh,rRNA inh HTS RFP,rRNA inh HTS OD600,Bfl-1 A1 inh,Beta apoptosis,T cruzi repl,Calb FLC,Beta2AR agonist
O=C(Nc1cccc(S(=O)(=O)N2CCCCC2)c1)C1CC(=O)N(c2ccc3c(c2)OCCO3)C1 (stereo unspecified),-0.1,-11,-4,2.4,-6,0.3,5,7,-3,9
C#CCOCCOCCOCCNc1nc(N2CCN(C(=O)C(Cc3cc4ccccc4[nH]3)n3cc(C(N)Cc4ccc(O)cc4)nn3)CC2)nc(N2CCN(C(=O)C(CCC(=O)O)n3cc(C(N)C(C)CC)nn3)CC2)n1 (stereo unspecified),-3.0,2,-7,0.3,-2,-0.6,-3,x,x,7
CCCC(=O)Nc1ccccc1NC(=O)c1ccc(OCC)c(OCC)c1,-2.0,-1,1,-3.0,2,0.8,-4,-9,-1,-7
CCC1SC(CC)C(=O)N(CC(=O)Nc2ccc3c(c2)OCO3)C1=O (stereo unspecified),1.8,2,-19,-0.6,0,0.4,-3,1,-16,-2
Cc1nnsc1C(=O)NNC(=O)c1cccc2ccccc12,3.8,-1,10,-1.9,-4,-0.8,-7,-10,12,-1
CSc1nc(N)nc(C2CC2)n1,0.0,21,-4,3.7,8,-0.2,-4,x,3,-2
O=C1CSC(c2ccc(Cl)cc2)N1C1CCCCC1 (stereo unspecified),-0.8,x,7,x,x,0.8,x,-14,8,0
COc1ccc(CNS(=O)(=O)c2ccc3c(c2)CCN3C(=O)C2CCC2)cc1,-0.9,1,-1,-2.4,-4,-0.5,-5,-3,7,-11
COC(=O)c1cccc(-c2ccc(/C=N/N3C(=O)C4C5C=CC(C6CC56)C4C3=O)o2)c1 (stereo unspecified),-1.6,3,-11,-1.7,-6,0.2,-1,10,0,6
CN(C)C(CNC(=O)c1ccc(S(=O)(=O)Nc2ccccc2F)cc1)c1ccccc1 (stereo unspecified),6.4,7,-16,-1.4,10,0.2,x,11,-1,10
CC1(C)CC(NCc2ccc3c(c2)OCO3)CCO1 (stereo unspecified),0.9,x,-5,x,x,-0.7,-9,-12,-11,3
CC1CCCN(C(=O)C2CCN(Cc3ccc4c(c3)OCO4)CC2)C1 (stereo unspecified),-0.7,5,-2,-2.5,7,0.6,-1,2,-2,-1
C=CCn1c(C)c(C(C)=O)c(SC)nc1=S,-7.2,x,-2,x,x,-0.1,-12,-6,-15,2
COc1ccc(OCC(=O)O/N=C(\N)c2ccc(OC)c(OC)c2)cc1,1.5,x,-27,x,x,1.2,-1,1,9,2
CN(C)c1cccc(C(=O)NC2CCCCCC2)c1,2.0,x,94*,x,x,-1.3,-8,14,0,-1
CC1(C)CC(=O)C(C2=NC(C)(C)Cc3ccccc32)=C(O)C1,3.8,x,-6,x,x,0.2,-1,-18,1,8
COc1cc2nc(COc3ccc(C#N)cc3)n(CC#N)c(=O)c2cc1OC,-1.6,-1,-7,-0.2,-6,0.4,6,2,-4,15
COC(=O)C1=C(N)Oc2cc(C)n(CCN3CCOCC3)c(=O)c2C1c1cccnc1 (stereo unspecified),1.0,x,-7,x,x,-0.2,-6,50,-15,1
COc1cccc(C(O)C2OC(=O)c3ccccc32)c1OC (stereo unspecified),2.9,8,-5,1.5,5,-0.5,x,-31,-4,-1
C#CCOCCOCCOCCNc1nc(N2CCN(C(=O)[C@H](CCC(=O)O)n3cc(CN)nn3)CC2)nc(N2CCN(C(=O)[C@H](CCC(=O)O)n3cc([C@@H](N)[C@H](C)CC)nn3)CC2)n1,-194,3,6,-0.5,3,0.3,-3,x,x,-5
Cc1cccc(NC(=O)CCSc2nncn2C)c1,-8.2,x,-4,x,x,2.0,-1,-4,-17,7
CCCCC(=O)NC(c1cccs1)c1cc(Cl)c2cccnc2c1O (stereo unspecified),0.1,4,-16,-0.8,10,-0.1,94*,u,u,10
COc1ccc(-n2c(CNC(=O)COc3ccc(Cl)cc3Cl)n[nH]c2=S)cc1,-3.9,-37,4,-6.4,-45,0.0,-3,6,-1,9
O=C(NCc1ccccc1)c1cc(=O)c2ccccc2o1,4.3,-5,-1,-2.0,-10,0.4,-2,-20,-24,10
C[C@H](CO)N1C[C@H](C)[C@@H](CN(C)Cc2ccc(Cl)c(Cl)c2)Oc2c(NS(=O)(=O)c3cccs3)cccc2C1=O,-2.4,0&-7,0,1.1&-9.6,1&-16,-0.1,-3,x,x,6
CC1=C(C#N)C(c2ccc(O)cc2)C2=C(CCCC2=O)N1 (stereo unspecified),-8.1,5,-2,0.5,8,-0.1,-3,14,10,0
O=C(COc1ccc2ccc(=O)oc2c1)NC1CCCC1,6.0,2,-3,-1.4,8,-0.3,4,-28,5,3
COc1ccc(NC(=O)C(C)N2c3cccc4cccc(c34)S2(=O)=O)cc1OC (stereo unspecified),-0.3,x,x,x,x,-0.5,16,-24,-8,6
CC1CCCN(S(=O)(=O)c2ccc(C(=O)Nc3nnc(-c4ccccc4Cl)o3)cc2)C1 (stereo unspecified),1.7,x,-5,x,x,0.6,16,41,-6,8
O=C(NN1C(=O)C2C3C=CC(C4CC34)C2C1=O)c1ccc(Cl)c(Cl)c1 (stereo unspecified),1.0,x,-6,x,x,-0.5,1,-9,4,-2

# 3 compounds already listed, arranged by the value under rRNA inh HTS RFP, falling.
Structure	LANA-H2A inh	rRNA inh HTS	ALR H2O2 inh	rRNA inh HTS RFP	rRNA inh HTS OD600	Bfl-1 A1 inh	Beta2AR agonist
C#CCOCCOCCOCCNc1nc(N2CCN(C(=O)C(Cc3cc4ccccc4[nH]3)n3cc(C(N)Cc4ccc(O)cc4)nn3)CC2)nc(N2CCN(C(=O)C(CCC(=O)O)n3cc(C(N)C(C)CC)nn3)CC2)n1 (stereo unspecified)	-3.0	2	-7	0.3	-2	-0.6	7
Cc1nnsc1C(=O)NNC(=O)c1cccc2ccccc12	3.8	-1	10	-1.9	-4	-0.8	-1
CCCC(=O)Nc1ccccc1NC(=O)c1ccc(OCC)c(OCC)c1	-2.0	-1	1	-3.0	2	0.8	-7

# (more compounds)
Structure,LANA-H2A inh,rRNA inh HTS,ALR H2O2 inh,rRNA inh HTS RFP,rRNA inh HTS OD600,Bfl-1 A1 inh,Beta apoptosis,T cruzi repl,Calb FLC,Beta2AR agonist
CC(C)N(CC(N)=O)c1ncnc2sc(-c3ccccc3)cc12,3.0,-2,x,2.4,-6,1.1,7,2,2,7
NC(=O)COc1c(-c2ccccc2)oc2ccccc2c1=O,1.6,x,3,x,x,-0.2,1,10,14,-20
CC(=O)c1ccc(N=C2SCCCN2C(=O)C2CCCC2)cc1,1.2,x,-4,x,x,-0.2,2,4,0,-4
O=C(O)CCC(=O)NNC(=O)CCC1CCCCC1,-2.5,9,3,8.7,14,0.2,3,2,-6,-2
COc1ccccc1NC(=O)c1cnc(Nc2ccccc2OC)c2ccccc12,1.6,5,-8,1.8,8,0.9,26,30,2,-3
O=C(C1=C[C@H](C2CCCCC2)C[C@H](OCc2ccc(CO)cc2)O1)N1CCN(Cc2ccc3c(c2)OCO3)CC1,1.4,x,-3,x,x,0.4,x,57*,19,15
Cc1cc(NC(=O)CCC(=O)N(c2ccc(F)cc2)C2(C(=O)NC3CCCCC3)CCCC2)no1,3.6,x,-16,x,x,1.4,-3,9,1,-7
C/C(=N/N=C1/NC(=O)CC(C(=O)O)S1)c1ccccc1 (stereo unspecified),-0.7,x,-7,x,x,0.0,-4,-7,-1,1
CC(C)OC(=O)c1c2nc3ccccc3nc2n2c1[nH]c(=O)c1ccccc12,2.6,x,-13,x,x,-0.8,6,27,-7,x
CCc1cccc(C)c1N=Cc1c(O)c2ccccc2oc1=O,3.9,-24*,x,3.0*,-0.1*,0.1,1,-3,4,-7
CN(c1ccccc1C(=O)Nc1ccc(S(=O)(=O)N2CCCCC2)cc1)S(C)(=O)=O,5.0,x,-2,x,x,1.0,1,-2,35,1
COC(=O)[C@@H]1C[C@@H]2CC[C@@H](O)C[C@@H]2N1Cc1ccc(C(F)(F)F)cc1,-1.4,2,x,3.2,7,-0.3,-17,3,1,16
N=c1n(CCO)c2ccccc2n1CCOc1ccc(Cl)cc1Cl,2.5,-50,-14,-10,-65,-0.1,10,21,13,21
O=C(Nc1ccccn1)c1cccc(S(=O)(=O)N2CCCc3ccccc32)c1,2.1,-33,2,-7.6,-36,-0.1,-6,x,x,-8
O=c1c2ccccc2[nH]c2ccc(O)cc12,5.7,2,87*,-3.5,-5,-0.2,12,-11,0,5

# An excerpt from above, showing only LANA-H2A inh, Beta apoptosis and T cruzi repl.
structure	LANA-H2A inh	Beta apoptosis	T cruzi repl
NC(=O)COc1c(-c2ccccc2)oc2ccccc2c1=O	1.6	1	10
COC(=O)[C@@H]1C[C@@H]2CC[C@@H](O)C[C@@H]2N1Cc1ccc(C(F)(F)F)cc1	-1.4	-17	3
O=C(O)CCC(=O)NNC(=O)CCC1CCCCC1	-2.5	3	2

# Later entries
Structure,LANA-H2A inh,rRNA inh HTS,ALR H2O2 inh,rRNA inh HTS RFP,rRNA inh HTS OD600,Bfl-1 A1 inh,Beta apoptosis,T cruzi repl,Calb FLC,Beta2AR agonist
CC1(NC(=O)Cc2ccc(Cl)c(Cl)c2)CCS(=O)(=O)C1 (stereo unspecified),1.0,2,x,-1.2,-3,0.0,0,x,x,1
Cc1ccccc1OCCCC(=O)Nc1ccc(Br)cc1,0.9,x,-2,x,x,-0.4,2,-24,2,0
Cc1c(CCC(=O)N[C@@H](C)C(=O)O)c(=O)oc2c(C)c3oc4c(c3cc12)CCCC4,10,-23,97*,-5.0,-37,1.0,-1,7,-1,1
COC(=O)C(CC(C(=O)OC)C(=O)OC)C(=O)OC,1.5,x,x,x,x,0.7,3,-14,2,0
CCOc1cc(N2CCOCC2)c(OCC)cc1NC(=O)c1ccc(S(=O)(=O)N(C)C)cc1,-2.9,8,x,-4.1,3,0.0,1,4,u,-6
COCCCN(CC(=O)O)S(=O)(=O)c1ccccc1,-1.7,20,-9,-1.2,23,0.1,-8,-12,-20,-1
CC(=O)C(C)Oc1ccc2c3c(c(=O)oc2c1)CCCCC3 (stereo unspecified),-3.1,x,0,x,x,-0.9,8,5,-31,-12
COc1ccccc1N1CCN(Cc2cn[nH]c2-c2ccc(F)cc2)CC1,-0.1,6,61,4.2,4,0.3,-5,6,0,3
O=C(N/N=C/c1c[nH]c2ccccc12)c1ccc([N+](=O)[O-])cc1Cl,-0.4,x,-22,x,x,0.3,-2,7,2,-2
COC(=O)c1cc(/C=C/c2ccccc2)on1,-7.1,x,-4,x,x,-7.4,x,-4,7,2

# A portion of the library; the hit share may differ from the screen's.
